# From PubChem BioAssay
# D2 PAM = positive allosteric modulators of human D2 dopamine receptor. P14416. DiscoveRx D2 beta-arrestin cells, luminescence, 90 min; 100% = 57 uM dopamine signal. potentiation, % (test concentration not listed). actives 0.23% (n = 360,000); active = potentiation of 50% or more; inconclusive = 30% to 50%; inactive = 30% or less;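 also: compound concentration not given in the record; tested on top of an EC20 dose of dopamine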
#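 PathHunter beta-arrestin assay in DiscoveRx D2 cells. Compounds were added with an EC20 of dopamine (50 nM final) for 90 min at 37 deg C. Luminescence was read 1 h after detection reagent, with 57 uM dopamine as the EC100 control.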
# TRPV1 PAM = human TRPV1 potentiation; potentiation, % at 8.33 µM; TRPV1-expressing cells, Fluo-8 calcium influx, capsaicin EC20 potentiation; host cell line not named in the record; control for the full effect not named in the record; AID 540277; Q8NER1; actives 0.02% (n = 320,000); active means potentiation above 80%; inconclusive means 30% to 80%; inactive means below 30%; also: 0% is about no effect
# Target sequence (Q8NER1 whole entry, looked up): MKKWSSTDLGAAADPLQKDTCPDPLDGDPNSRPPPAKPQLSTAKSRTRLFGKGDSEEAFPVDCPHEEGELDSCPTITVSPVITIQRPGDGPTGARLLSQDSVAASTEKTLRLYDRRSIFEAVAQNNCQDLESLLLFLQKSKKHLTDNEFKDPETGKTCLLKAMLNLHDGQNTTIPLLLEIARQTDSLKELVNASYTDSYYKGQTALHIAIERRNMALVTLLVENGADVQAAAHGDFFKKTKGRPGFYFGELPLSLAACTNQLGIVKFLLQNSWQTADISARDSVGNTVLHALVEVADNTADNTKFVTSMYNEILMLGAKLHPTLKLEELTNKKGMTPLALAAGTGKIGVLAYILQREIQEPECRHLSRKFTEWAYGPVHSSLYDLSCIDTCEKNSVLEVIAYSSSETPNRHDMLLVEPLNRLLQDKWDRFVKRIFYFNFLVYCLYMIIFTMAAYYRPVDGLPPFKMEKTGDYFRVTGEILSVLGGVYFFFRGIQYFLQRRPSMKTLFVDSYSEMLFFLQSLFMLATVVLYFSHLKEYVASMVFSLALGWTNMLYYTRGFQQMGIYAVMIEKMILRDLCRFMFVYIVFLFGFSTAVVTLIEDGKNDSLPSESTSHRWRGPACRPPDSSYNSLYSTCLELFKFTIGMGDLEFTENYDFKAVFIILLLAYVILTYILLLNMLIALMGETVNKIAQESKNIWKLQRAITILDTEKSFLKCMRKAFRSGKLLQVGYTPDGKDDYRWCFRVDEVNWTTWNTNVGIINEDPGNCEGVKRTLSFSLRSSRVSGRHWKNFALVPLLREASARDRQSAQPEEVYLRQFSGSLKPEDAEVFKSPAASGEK
#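 Cells expressing TRPV1 were dye-loaded with Fluo-8 and read kinetically: 10 s baseline, 3 min after compound (agonist portion), then 2 min after EC20 capsaicin (allosteric enhancer portion). Calcium-bound dye fluorescence at 480/520 nm.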
# Six1-Eya2 blk = Six1/Eya2 interaction inhibition. Q15475+O00167. AlphaScreen GST-Six1/His-Eya2 binding, biochemical; stronger effect = lower value; control for the full effect not named in the record. activity change, % (concentration not given with the values). actives 0.56% (n = 360,000). AID 651725; in the data active = activity change below about -65%; inconclusive = about -30% to -65%; inactive = above about -30%; also: % is scaled to controls: 0 for no effect and ±100 for the full control effect
#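 Homogeneous AlphaScreen proximity assay pairing GST-Six1 with His-tagged Eya2 (added as 5X mix: 250 nM and 500 nM) in 50 mM Tris pH 8.0, 300 mM NaCl, 1 mM TCEP. Glutathione donor and nickel acceptor beads; 1 h, 37 °C, dark.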
# PINK1 modulator = modulators of PINK1 expression | PINK1 immunofluorescence, high-content cytometry, 24 h | Potency, µM (titrated, usually from 76.6 µM), for inactives: top-dose activation (PINK1 increase), usual class: activators | AID 624263 | actives 0.2% (n = 410,000); active = well fitted activation curve with a large enough effect; inconclusive = small, poorly fitted or top-dose-only effect; inactive = flat fitted curve, though single readings scatter; cell line not stated here;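 also: potency is read from the fitted curve at half-maximal effect; % of control where 0% means no effect; nearly all actives have a fitted effect of over 65% in size; a mitochondrial uncoupler was the plate control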
#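 Compound titrations (5 concentrations, 24 h) on a stable cell line; DMSO and CCCP controls. Endpoint: fixed-cell PINK1 immunofluorescence with mitochondrial, cell and nuclear markers, scanned by microplate cytometer.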
# Sfp PPTase inh = inhibitors of Bacillus subtilis Sfp phosphopantetheinyl transferase | Q9F4F7 | Biochemical Sfp PPTase activity, qHTS | Potency, µM, for inactives: max response, negative = inhibition, actives largely listed as inhibitors | actives 3.5% (n = 310,000); active = well fitted inhibition curve with a large enough effect; inconclusive = small, poorly fitted or top-dose-only effect, or another doubt; inactive = no such curve, though single readings can be large or run the other way;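 also: the enzyme is Sfp with the accession as filed and its product quenches rhodamine fluorescence; potency is read from the fitted curve at half-maximal effect; 0% = enzyme reaction without inhibitor and -100% = no enzyme wells; top concentration of the series not given in the record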
#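 Step 1, compound plus 15 nM Sfp-PPTase, 15 min, room temperature. Step 2, add rhodamine-CoA (5 uM) and BHQ-2-YbbR (12.5 uM). Step 3, read 525/598 nm fluorescence at 0 and 30 min.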
# D2 agonist = activates the human D2 dopamine receptor. DiscoveRx PathHunter D2 beta-arrestin, luminescence, 90 min; 100% = 57 uM dopamine signal. actives 0.084% (n = 360,000). activation, % (concentration not given with the values). P14416; in the data active = activation above about 40%; inconclusive = about 15% to 40%; inactive = below about 15%; also: compound concentration not given in the record; the text of the record calls up to 30% inactive
#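 DiscoveRx PathHunter D2 beta-arrestin cells (2,100/well) attached overnight, then compound-stimulated 90 min at 37 C in HBSS/10 mM HEPES/0.1% Tween-20 buffer; beta-galactosidase complementation read by luminescence after 1 h at ambient temperature. Dopamine 57 uM final (EC100) as control.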
# CtBP-E1A inh = inhibitors of CtBP/E1A interaction; activity change, % (no concentration beside the values); AlphaScreen GST-E1A/His-CtBP binding, 1536-well; stronger effect = lower value; control for the full effect not named in the record; AID 651724; actives 0.49% (n = 340,000); in the data active means activity change below about -65%; inconclusive means about -30% to -65%; inactive means above about -30%; also: % is scaled to controls: 0 for no effect and ±100 for the full control effect; compound concentration not given in the record
#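 Protein mix (5X: 125 nM each GST-E1A, His-CtBP) was incubated with pinned compound 2 h at 37 deg C in dark, in 50 mM Tris pH 8.0 buffer with 300 mM NaCl. Glutathione donor and nickel acceptor beads followed; AlphaScreen signal read after 1 h.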
# Active calls of the source: *; ? = inconclusive; . = no result given; & = joins results of further samples; [ ] = another dose, or the depositor's remark.
SMILES,D2 PAM,TRPV1 PAM,Six1-Eya2 blk,PINK1 modulator,Sfp PPTase inh,D2 agonist,CtBP-E1A inh
CCc1cccc(CC)c1-n1c(SCC(=O)c2c(N)n(C)c(=O)n(C)c2=O)nnc1-c1cccnc1,-4,9,24,3.8%,9%,-0.3,29
COC(=O)c1c(N)sc(C(C)=O)c1C,-1,-3,7,2.4%,11%,-1.9,-17
C/C(CC(=O)Nc1ccc([N+](=O)[O-])cc1)=N\NC(=O)c1ccccc1[N+](=O)[O-],-6,?,-13,2.1%,20%,2.0,-4
CN(C)c1ccc(C=c2c3ccccc3n3c2cc(-c2ccc(Cl)cc2)[n+]3C)cc1,8,.,?,1.2%,.,-5.6,18
Cc1ccccc1NC(=O)CSc1nnc(NC(=O)c2ccco2)s1,-4,3,-1,-1.7%,1%,-2.4,-12
O=C(NCCN1CCCC1=O)Nc1ccccc1,25,1,-6,0.9%,15%,-1.7,9
Cc1ccccc1Oc1ccc(S(=O)(=O)NCCC(=O)O)cc1,-8,-4,1,0.7%,3%,3.4,-15
CCc1ccc2c(c1)c1nnc(NN)nc1n2CC,-15,2,-18,?,-20%,-4.0,-12
C[C@@]12C(=O)Nc3cc(F)ccc3C(=O)N1[C@H]1c3ccccc3OC[C@@H]1[C@@H]2c1ccccc1,-5,?,-12,-0.4%,.,-1.0,2
COCCNC(=S)N/N=C(\C)c1ccc(Cl)s1,-11,-23,-15,0.9%,19%,-5.6,-6
CCc1ccc(NC(=O)COc2ccc(Br)cn2)cc1,-21,-10,0,-1.2%,4%,1.6,-11
CCC(O)CNC(=O)NC(=C(Cl)Cl)c1ccc(C)c(F)c1 (stereo not drawn),-3,-8,8,-0.6%,12%,-2.3,-11
CC1CCCN(C(=O)C(C)Sc2nc(-c3ccccc3)cc(C(F)(F)F)n2)C1 (stereo not drawn),12,-2,17,.,-7%,0.0,4
COc1ccccc1NC(=O)CSc1ncc(CO)n1Cc1ccc(F)cc1,0,-5,0,-0.6%&-3.4%,2%,-0.1,-2
COc1ccc(C(=O)NCCS(=O)(=O)N2CCC3(CC2)OCCO3)cc1,14,-4,4,-2.5%,.,-9.4,-2

# Another view of part of the listing above:
SMILES: O=C(NCCN1CCCC1=O)Nc1ccccc1
  D2 PAM = 25 | TRPV1 PAM = 1 | Six1-Eya2 blk = -6 | PINK1 modulator = 0.9% | Sfp PPTase inh = 15% | D2 agonist = -1.7 | CtBP-E1A inh = 9

SMILES: Cc1ccccc1Oc1ccc(S(=O)(=O)NCCC(=O)O)cc1
  D2 PAM = -8 | TRPV1 PAM = -4 | Six1-Eya2 blk = 1 | PINK1 modulator = 0.7% | Sfp PPTase inh = 3% | D2 agonist = 3.4 | CtBP-E1A inh = -15

SMILES: CCc1ccc2c(c1)c1nnc(NN)nc1n2CC
  D2 PAM = -15 | TRPV1 PAM = 2 | Six1-Eya2 blk = -18 | PINK1 modulator = ? | Sfp PPTase inh = -20% | D2 agonist = -4.0 | CtBP-E1A inh = -12

# New compounds follow.
SMILES,D2 PAM,TRPV1 PAM,Six1-Eya2 blk,PINK1 modulator,Sfp PPTase inh,D2 agonist,CtBP-E1A inh
CCC(C)NC(=O)C1CCN(C(=O)COc2ccc3c4c(c(=O)oc3c2C)CCCC4)CC1 (stereo not drawn),-5,14,0,0.3%,-1%,-1.8,-4
Oc1ccc(Oc2ccc3c(C(F)(F)F)cc(C(F)(F)F)nc3n2)cc1,-6,-29,-16,5.0%,-3%,3.6,-8
COc1ccc(N2CC(NS(=O)(=O)c3cccs3)CC2=O)cc1OC (stereo not drawn),3,-8,8,1.9%,.,-3.2,-9
COc1cc(C(=O)Nc2ccc(NC(=O)c3ccco3)nc2)cc(OC)c1OC,-5,-3,-4,0.8%,31%,1.2,-4
C[C@@H]1CN([C@@H](C)CO)C(=O)c2cc(NC(=O)c3ccccc3)ccc2O[C@@H](C)CCCCO[C@@H]1CN(C)S(=O)(=O)c1ccc(F)cc1,-4,.,-11,1.7%,.,-7.7,-26
Cc1cc2cc(CCNC(=O)CCCc3ccccc3)c(=O)[nH]c2cc1C,-5,8,9,3.2%,9%,2.6,.
Cn1cccc1C(=S)N=P(C1CCCCC1)(N1CCOCC1)N1CCOCC1,-8,-2,-4,-1.7%[38.3 µM],-28%,2.0,-10
CCCCNC(=O)C1(NC(=O)Nc2ccccc2)CCCCC1,-12,-6,1,-0.3%,7%,7.0,2
O=C(NC1CC1)c1cccc(Nc2ccc(-c3ccc4c(c3)OCCO4)nn2)c1,-13,27,?,19%[38.3 µM],-1%,0.5,?
COCCCN1CC(=O)N2C(c3cccc(OC)c3)c3[nH]c4ccccc4c3C[C@H]2C1=O (stereo partly drawn),0,5,-3,5.1%,-5%,-0.1,2
CCOc1ccccc1NC=C1C(=O)OC(C)(C)OC1=O,-4,1,8,-1.0%,-7%,1.2,-7
COc1ccc(-c2cc3ccccc3n2CC(O)CN2CCOCC2)cc1 (stereo not drawn),-42,10,-3,-1.0%,3%,-0.8,1
CCCCOc1ccc(C(=O)NCC(=O)NCC(c2ccco2)N2CCCCC2)cc1 (stereo not drawn),-22,-1,13,-0.6%,.,-4.3,0
COc1cccc(-n2c(=S)sc3c(=O)n(-c4ccccc4C)c(SCC(=O)O)nc32)c1,-2,2,-5,3.3%,5%,0.3,-24
CCOC(=O)C1(Cc2ccccc2C(F)(F)F)CCN(Cc2ccc(COC)o2)CC1,-13,-19,-7,1.5%,5%,-1.5,-1
COc1ccc(C(C(=O)NC2CCCC2)N(C(=O)c2csnn2)C2CC2)cc1 (stereo not drawn),-4,2,1,1.7%,16%,-5.7,-10
CN(C)c1oc(COc2ccccc2F)nc1C#N,-10,3,-1,-0.5%,7%,-3.5,-2
O=[N+]([O-])c1ccc2c(c1)ncn2CCc1ccccc1,-4,-8,-4,-0.5%,-3%,-6.2,-9
COC(=O)[C@@]1(Cc2ccccc2)[C@H]2C(=O)N(C)C(=O)[C@H]2[C@H]2CN=C(SCc3ccccc3)N21,-11,.,3,-1.2%,.,0.1,-12
Cc1ccc(C)c(NC2=NCC(=O)N2C2CCCCC2)c1,-6,-11,2,0.0%,-9%,0.1,-1
O=C(NC(c1ccc(Cl)cc1)c1cc(Cl)c2cccnc2c1O)c1cccnc1 (stereo not drawn),-62,19,-17,1.1%,6%,-16,-4
O=C1CN(C(=O)COC(=O)/C=C/c2ccc(OC(F)F)cc2)c2ccccc2N1,-2,12,4,6.8%,-6%,5.1,-3
CC(C)CC(N)c1csc(Nc2ccccn2)n1 (stereo not drawn),-11,.,-83*,6.3%,.,-4.3,-89*
CCOC(=O)C1=CC[C@@H](c2ccccc2)N(S(=O)(=O)c2ccc(C)cc2)[C@H]1c1ccc(CC)cc1,-2,.,1,3.1%,.,-4.1,4
O=C(c1sccc1-c1ccccc1)N1CCN(S(=O)(=O)c2ccccc2F)CC1,-6,-9,3,0.3%,.,2.1,-2
Cn1c(CNC(=O)c2ccccc2F)nnc1SCCOc1ccccc1,-6,-9,-16,-0.4%,18%,-2.3,6
COc1ccc(-n2nc(N)c3c(=O)oc(N(C)C)nc32)cc1,25,4,-5,0.5%,8%,1.0,-16
O=C(O)c1cc(S(=O)(=O)Nc2ccc3cn[nH]c3c2)ccc1Cl,-4,.,-6,2.3%,.,3.0,.
Cc1ccc(S(=O)(=O)N2CCC[C@H]2C(=O)OCCN2C(=O)c3ccccc3C2=O)cc1,-2,-7,-2,2.4%,.,-11,9
COc1ccc(C(C)=O)cc1COC(=O)Cn1cnc2ccccc2c1=O,0,3,-1,0.2%[38.3 µM],3%,-0.5,2
CCn1nc(NC(=O)c2cccs2)c2cc3ccccc3nc21,3,-9,14,3.3%,0%,4.6,5
CCOC(=O)Nc1nnc(-c2cccc(OC)c2)s1,-3,-5,0,0.9%,16%,-0.8,-1
Cc1ccc(S(=O)(=O)CCc2nc3ccccc3s2)cc1,-16,1,9,2.2%,?,-3.8,2
C[C@H](O)c1[nH]c2cc(F)ccc2c1[C@H](C)O,0,-3,-4,6.4%,-7%,-0.7,-2
COC1CC(=O)C2OC(c3ccccc3)OCC2O1 (stereo not drawn),-9,.,20,-0.7%,.,-5.3,1
COc1ccc(CN2C(=O)CN=C2Nc2ccc(C)cc2C)cc1,9,?,0,-1.2%,1%,-3.9,0
S=c1[nH]nc(-c2ccc3ncccc3c2)n1-c1ccc2c(c1)OCCO2,-20,1,-2,0.5%,79µM*,-8.5,3
CN(C)c1ccc(-c2[nH][nH]c(=O)c2NC(=O)c2ccccn2)cc1,-3,.,-22,12%,.,?,?
CC(Sc1nnc(C(C)N(C)C)n1-c1ccc(Cl)cc1)C(=O)Nc1ccc2c(c1)OCO2 (stereo not drawn),-11,6,-7,-1.2%,1%,-3.1,-2
CC1Nc2ncnc(N3CCN(c4ccccn4)CC3)c2N(Cc2ccccc2)C1=O (stereo not drawn),-40,-17,-6,2.6%,.,-15,1
Cc1ccccc1-c1n[nH]c(=S)n1/N=C/c1c(C)nn(-c2ccccc2)c1C,-24,-9,3,0.5%,?,2.0,-1
COc1ccc(C(=O)NN(C)c2nc(-c3ccccc3)cc(C)c2S(C)(=O)=O)cc1,-32,25,-14,14%,-2%,-0.5,-1
NS(=O)(=O)c1ccc(CCNC(=O)CSc2cccs2)cc1,-1,1,4,0.6%,17%,0.6,5
O=C(O)C(Oc1ccc2cc(-c3ccc(Cl)cc3)c(=O)oc2c1)c1ccccc1 (stereo not drawn),-3,4,0,5.1%,?,-4.8,-5
CC1CCCC(C)N1CCCNC(=O)c1ccc2c(c1)NC(=O)c1ccccc1S2 (stereo not drawn),-21,2,-11,8.8%,-2%,-3.3,-18
COc1ccc(-c2nc3ccncc3[nH]2)cc1OC,-1,5,-3,-0.4%,13%,-1.1,1
CC1Cc2ccccc2N1C(=O)c1ccnc(C(C)(C)C)c1 (stereo not drawn),6,4,3,3.3%[38.3 µM],11%,3.6,5
CCCN(CCC)CCCNC(=O)C1c2cc(OC)c(OC)cc2C(=O)N(C)C1c1cccnc1 (stereo not drawn),-10,13,-7,-0.2%,-4%,-4.8,20
